RE007 growth inh = qHTS Assay for Inhibitors of the HIV-1 protein Vpr; S. pombe RE007 Vpr strain, BacTiter-Glo ATP luminescence, 24 h; control for the full effect not named in the record; Potency, µM (series often up to 92.2 µM), inactives show at the highest dose activity change, negative = less growth; actives 0.21% (n = 360,000); AID 651644, 2012; active = well fitted falling curve with a large enough effect; inconclusive = small, poorly fitted or top-dose-only effect; inactive = no such curve, though single readings can be large or run the other way;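 further: on the % scale 0 is the no-effect control and ±100 the full control effect; nearly all actives have a fitted effect of over 50% in size; the assay follows cell death caused by Vpr and the record does not say whether a fall means rescue or toxicity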
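Fission yeast strain RE007, carrying one chromosomally integrated HIV-1 vpr copy, was seeded at OD 0.01 in PMG+AL medium with 23 nL pinned compound. After 24 h at 30 °C and 99% humidity, viability was read by BacTiter-Glo luminescence.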
StopGo reporter = High Throughput Screening for Foot and Mouth Disease Virus Antivirals | human cells with a luciferase reporter of 2A StopGo recoding; control for the full effect not named in the record | Potency, µM (doses to about 57.9 µM), without a hit: at the highest dose signal change, negative = less light | actives 1.2% (n = 410,000) | AID 1159524, 2015; active = well fitted falling curve with a large enough effect; inconclusive = small, poorly fitted or top-dose-only effect; inactive = no such curve, though single readings can be large or run the other way; tested in HEK293T cells; further: on the % scale 0 is the no-effect control and ±100 the full control effect; nearly all actives have a fitted effect of over 45% in size; luciferase light after 4 h
SARS PLpro yeast = qHTS of Yeast-based Assay for SARS-CoV PLP | actives 0.19% (n = 330,000) | S. cerevisiae expressing SARS-CoV PLpro, growth rescue; control for the full effect not named in the record | Potency, µM (top dose mostly 32.9 µM), for the others: at the highest dose activity, positive = growth rescue | AID 485353, 2010; active means well fitted rising curve with a large enough effect; inconclusive means small, poorly fitted or top-dose-only effect; inactive means no such curve, though single readings can be large or run the other way; further: 0% is about no effect; nearly all actives have a fitted effect of over 55% in size; growth read by luminescence after 48 h
An asterisk follows results filed as active; u = inconclusive; [ ] = dose if it differs, or a comment. Potency means the concentration at half of the fitted maximal effect.

SMILES	RE007 growth inh	StopGo reporter	SARS PLpro yeast
C/C=C(\C)C(=O)O[C@H](c1cc2ccc(=O)oc2cc1OC)[C@@H](O)C(C)(C)O	1%	-5%	1%
Cc1ccc(OCCCC(=O)Nc2ccc3c(c2)OCCO3)cc1	5%	u	-7%
O=C(OC1CCOC1=O)C1CCN(S(=O)(=O)c2ccccc2)CC1 (configuration not stated)	6%	2%	2%
CC1CC1C(=O)N(C)CC(=O)Nc1ccccc1Br (configuration not stated)	15%	-24%	-1%
O=C(COC(=O)C1CCN(S(=O)(=O)c2ccccc2)CC1)NCCc1ccccc1	2%	-5%	0%
O=C(Nc1ccccc1)c1cc(S(=O)(=O)N2CCCCC2)ccc1N1CCOCC1	17%	3%	3%
O=C(CSc1nnc(Nc2ccccc2)s1)NC1CC1	-12%	7%	-1%[6.58 µM]
O=C(O)CCn1cc(-c2ccc(Cl)cc2)nc1-c1ccncc1	0%	-1%	-1%
O=S(=O)(c1ccc(SCCOc2ccc(F)cc2)nc1)N1CCCC1	9%	u	-7%
CCOc1nc(NC(C)C)nc(N2CC3CC(C2)c2cccc(=O)n2C3)n1 (configuration not stated)	-21%	3%	4%
CCN(CC)c1ccc(C(=O)NNC(=O)CNC(=O)c2cccs2)cc1	0%	-4%	1%
CN(c1ccccc1)S(=O)(=O)c1ccc(C(=O)N2CCc3ccccc3C2)cc1	4%	-24%	-3%
CCC[C@@H](CN1CCC[C@H]1CN1C(N)=NC[C@H]1CC(C)C)N1C[C@@H]([C@H](C)CC)N(CCc2ccc(Cl)c(Cl)c2)C1=N	-7%	-15%	-3%
COc1ccc2c(c1)OC[C@H]1[C@H]2N2C(=O)c3cc(C)ccc3NC(=O)[C@@]2(C)[C@H]1c1ccccc1	-18%	-20%	-1%
C#CCOCCOCCOCCNc1nc(N2CCN(C(=O)Cn3cc(CCCN=C(N)N)nn3)CC2)nc(N2CCN(C(=O)[C@H](CCCCN)n3cc(CCCC)nn3)CC2)n1	-9%	-1%	0%
CC(C)=CCC[C@](C)(O)C1CC[C@]2(C)C1C(O)CC1[C@@]3(C)CCC(O)C(C)(C)C3C(O[C@@H]3OC(CO)C(O)C(O)C3O[C@@H]3OC(C)C(O)C(O)C3O)C[C@]12C (some centres not stated)	-3%	-21%	5%
CC1(c2ccccc2)NC(=O)N(CC(=O)NNC(=O)c2cccc(Cl)c2)C1=O (configuration not stated)	-3%	-18%	2%
Cc1ccccc1C[n+]1cccc2ccccc21	-6%	-13%	0%
CC(C)Oc1ccc(Cc2cnc(=S)[nH]c2N)cc1	0%	-18%	0%
CCn1c(=O)cc(SCC(=O)Nc2ccc(C)cn2)c2ccccc21	14%	25%	0%
Cc1cccc(CSc2ccc(S(=O)(=O)N3CCCC3)cn2)c1	-27%	-20%	10%
COc1cccc(NC(=S)Nc2cc(C(=O)O)ccc2N2CC3CC(C2)c2cccc(=O)n2C3)c1 (configuration not stated)	3%	1%	0%
COC(=O)[C@H](C)N1C/C=C\COc2c(Cl)cc(Cl)cc2S1(=O)=O	6%	-8%	29%
CCCCN(C(=O)CSc1ncnc2sccc12)c1c(N)n(Cc2ccccc2)c(=O)[nH]c1=O	-5%	-20%	10%
CCc1ccc(N2C(=O)C(Cl)=C(Nc3ccc(C(=O)N4CCCC4)cc3)C2=O)cc1	14%	u	8%
COc1ccc(-c2ccc3c(c2)S(=O)(=O)c2cccc(C(=O)N4CCN(C5CCCCC5)CC4)c2C3=O)cc1OC	-11%	-19%	-3%
CCOc1ccc(-c2n[nH]c(C)c2-c2ccccn2)c(O)c1	18%	-11%	3%
Cc1cc(Nc2c(C#N)c(N)nn2C)ccc1F	-5%	-14%	1%
CCCn1c(N)c(C(=O)CN(C)CC(=O)Nc2ccccc2CC)c(=O)[nH]c1=O	-8%	-29%	2%
O=c1cc(-c2ccc(O)cc2)oc2cc(O)c([C@@H]3O[C@H](CO)[C@@H](O)[C@H](O)[C@H]3O)c(O)c12	5%	-3%	-8%
O=C(Nc1cccc(Cl)c1)C1CCCCC1	6%	16%	3%
O=C(/C=C/c1ccc(F)cc1)N1CCc2ccccc2C1	-10%	40%[activator]	3%
COC(=O)C1=C(c2ccc(-c3ccccc3)c(F)c2)C[C@@H]2CC[C@H]1N2C(=O)NCc1cccc2ccccc12	4%	-19%	3%
Cc1csc(=O)n1CC(=O)OCC(=O)NC(C)c1ccc(F)cc1 (configuration not stated)	-8%	-11%	-2%
CC(C)Cn1nc(C(=O)Nc2nnc(C3CC3)s2)c2ccccc2c1=O	-3%	-24%	1%
COc1ccc(OC)c(/C=C/C(=O)Nc2cccc(S(=O)(=O)N3CCCC3)c2)c1	6%	-19%	1%
CC[C@@]1(C(=O)OC)N[C@H](CN(C)C(C)=O)[C@@H]2C(=O)N(C)C(=O)[C@@H]21	0%	-12%	6%
CC(=O)c1c(C)[nH]c(C(=O)OCC(=O)Nc2nnc(-c3ccccc3)o2)c1C	-13%	7%	2%
CCN(CC(=O)Nc1ccc2c(c1)OCCO2)C(=O)/C=C/c1cccc(C(F)(F)F)c1	-9%	-12%	-4%
O=S(=O)(NCC(c1cccnc1)N1CCOCC1)c1ccc(Cl)cc1 (configuration not stated)	7%	4%	-1%

Four entries from above, as labelled records.
O=S(=O)(NCC(c1cccnc1)N1CCOCC1)c1ccc(Cl)cc1 (configuration not stated)
  RE007 growth inh: 7%
  StopGo reporter: 4%
  SARS PLpro yeast: -1%
CC1(c2ccccc2)NC(=O)N(CC(=O)NNC(=O)c2cccc(Cl)c2)C1=O (configuration not stated)
  RE007 growth inh: -3%
  StopGo reporter: -18%
  SARS PLpro yeast: 2%
CCn1c(=O)cc(SCC(=O)Nc2ccc(C)cn2)c2ccccc21
  RE007 growth inh: 14%
  StopGo reporter: 25%
  SARS PLpro yeast: 0%
O=C(OC1CCOC1=O)C1CCN(S(=O)(=O)c2ccccc2)CC1 (configuration not stated)
  RE007 growth inh: 6%
  StopGo reporter: 2%
  SARS PLpro yeast: 2%

Carrying on:
SMILES	RE007 growth inh	StopGo reporter	SARS PLpro yeast
Cc1ccccc1-c1nc(S(=O)(=O)c2ccccc2)c(NCCCN2CCOCC2)o1	-3%	6%	2%
NC(=O)COC(=O)c1c2c(nc3ccccc13)CCC2	-3%	-15%	2%
COc1cc(C)ccc1OCC(=O)NC1CCCCCC1	-10%	22%	-6%
CSCC(=O)Nc1nc(-c2ccc3c(c2)OCCO3)cs1	-26%	17%	-4%
O=C(Nc1cccc(S(=O)(=O)N2CCCCC2)c1)C1=NN(c2ccccc2)C(=O)CC1	-15%	u	2%
COc1ccccc1-c1sc2cc3c(cc2c1C#Cc1cncn1C)OCO3	-2%	u	7%
COc1cc([C@H]2OC[C@H]3[C@@H]2CO[C@@H]3c2ccc(O[C@H]3O[C@H](CO)[C@@H](O)[C@H](O)[C@H]3O)c(OC)c2)ccc1O[C@@H]1O[C@H](CO)[C@@H](O)[C@H](O)[C@H]1O	0%	-5%	-1%
COc1ccc(-c2coc(CCC(=O)N3CCN(c4cc(C)ccc4C)CC3)n2)cc1	6%	-16%	22%
CC[C@]12c3[nH]c4ccc(OC)cc4c3CCN1C(=O)C(CC(=O)NCCCn1ccnc1)C[C@@H]2C(=O)N1CCN(C(=O)c2ccco2)CC1 (some centres not stated)	-14%	0%	4%
Cc1nn(C2CCS(=O)(=O)C2)c(C)c1CN(C)C(=O)c1ccccc1 (configuration not stated)	-7%	-6%	2%
C=Cc1ncc(OC)c2c1[nH]c1ccccc12	-14%	16µM*	2%
C/C=C/C(=O)OCC(=O)Nc1cccc(F)c1	4%	4%	0%
O=C(OCC(=O)N1CCc2ccccc21)C1CCCN1S(=O)(=O)c1ccc(Cl)cc1 (configuration not stated)	9%	-14%	1%
O=C(NCc1ccccn1)c1cccc(S(=O)(=O)N2CCCCC2)c1	5%	-1%	-1%
Cc1nn(C)c(Oc2cccc(Cl)c2)c1C#N	0%	-12%	0%
COc1ccc(CN(C2CC2)S(=O)(=O)c2ccccc2Br)cc1	10%	u	1%
Cc1ccc(S(=O)(=O)Nc2cccc3c2O[C@H](CN(C)Cc2ccccc2)[C@@H](C)CN([C@H](C)CO)C3=O)cc1	-2%	66%[activator]	6%
COc1ccccc1OCCC(=O)NNC(=O)c1ccccc1F	15%	-8%	8%
COc1ccc(-c2nn(-c3ccccc3)cc2C(=O)Nc2cccc(S(=O)(=O)NC3=NCCC3)c2)cc1	-2%	29%	1%
Cc1cc(C(=O)Nc2ccc(Cl)c(S(=O)(=O)N3CCOCC3)c2)c2ccccc2n1	-10%	-29%	2%
CCN(CC(=O)Nc1ccc(OC)cc1)C(=O)Cc1ccc(OC)c(S(=O)(=O)N2CCOCC2)c1	-18%	10%	4%
CC(C)(C)OC(=O)CC1(C#N)c2ccccc2C(Br)=CN1C(=O)c1ccccc1 (configuration not stated)	-4%	14%	3%
CCCN(CC(=O)Nc1ccccc1OC)C(=O)Cc1ccc2c(c1)CCC2	-3%	-14%	-6%
O=C(NC12CC3CC(CC(C3)C1)C2)N1CCN(C2CCCCC2)CC1	-6%	-15%	-4%
Cc1ccc([C@@H]2CC=C(C(=O)O)[C@H](c3ccc(Cl)cc3)N2S(=O)(=O)c2ccc(C)cc2)cc1	6%	-23%	-23%
CCOC(=O)c1c(C)[nH]c(C(=O)OCC(=O)N(C)c2c(N)n(Cc3ccccc3)c(=O)[nH]c2=O)c1C	32%	-12%	12%
COC(=O)C1=C(c2ccc(C(C)=O)cc2)C[C@@H]2CC[C@H]1N2C(=O)NCCO	10%	15%	-8%
CN(CC(=O)Nc1ccccc1Br)C(=O)c1cc(Cl)nc2ccccc12	-6%	-1%	10%
CCOc1ccc(S(=O)(=O)N(C)c2ccc(OCC(=O)N3c4ccc(C)cc4C4CN(C)CCC43)cc2)cc1 (configuration not stated)	9%	-8%	-6%
O=S(=O)(c1ccc(F)cc1)N1CCN(Cc2cc3c(cc2Br)OCCO3)CC1	2%	-23%	-12%
C#CCOCCOCCOCCNc1nc(N2CCN(C(=O)[C@H]([C@@H](C)CC)n3cc(CCCN=C(N)N)nn3)CC2)nc(N2CCN(C(=O)[C@H](CCCCN)n3cc(CC(C)O)nn3)CC2)n1 (some centres not stated)	-4%	-8%	-1%
CC(C)c1ccccc1NC(=O)CSc1n[nH]c(=O)n1C1CC1	-2%	-4%	0%
COc1cc(OC)cc(C(=O)NNC(=O)CCNC(=O)c2ccc(Br)cc2)c1	-2%	-15%	1%
Cc1ccccc1N1CCN(C(=O)[C@@H]2CCCN2C2=NS(=O)(=O)c3ccccc32)CC1	6%	33%[activator]	3%
C=CC[C@@H](CC(=O)N[C@H](CO)Cc1ccccc1)C(=O)N[C@@H](COC(=O)[C@@H](CC=C)Cc1ccc(F)cc1)Cc1ccccc1	7%	-12%	3%
CSc1ccc(/C=C/C(=O)OCC(=O)N2CCN(S(=O)(=O)c3ccc(C)cc3C)CC2)cc1	-4%	u	-2%
CC(=O)Nc1nc2cc(N)ccc2s1	-3%	6%	9%
O=C(CCSc1ccc(F)cc1)NNC(=O)c1ccccc1Cl	8%	-2%	-7%
O=C(COC(=O)Cc1ccccc1)NNC(=O)c1ccc([N+](=O)[O-])cc1	-14%	-11%	-3%
COc1ccc([C@H]2CC(=O)C=C(c3cccc(Cl)c3O)C2)cc1OC	-6%	-27%	-2%
O=C(COC(=O)Cc1ccc(F)cc1)NCc1ccco1	-1%	6%	1%
O=C(CC1C(=O)Nc2ccccc2N1CC(=O)N1CCCC1)Nc1ccc(Br)cc1 (configuration not stated)	-7%	4%	-1%[6.58 µM]
Cc1cc(NS(=O)(=O)c2ccc(NC(=O)c3ccc(F)cc3)cc2)nc(C)n1	47%	42%[activator]	10%
Cc1cc2nc(NCCCO)n(CC(=O)c3cc(C(C)(C)C)c(O)c(C(C)(C)C)c3)c2cc1C	-6%	0%	1%
CCN(CC)C(=O)COC(=O)C1CCN(S(=O)(=O)c2ccc3c(c2)OCCO3)CC1	-3%	-19%	7%
COc1ccccc1C(=O)NCCC(=O)Nc1ccc(S(=O)(=O)N2C(C)CCCC2C)cc1 (configuration not stated)	7%	-19%	1%
CCOC(=O)[C@H]1[C@H]2COc3ccc(Cl)cc3[C@@H]2N2C(=O)[C@@H](CO)NC(=O)[C@@]12C	-5%	-21%	-4%
C[C@H](CO)N1C[C@H](C)[C@@H](CN(C)S(C)(=O)=O)Oc2ccc(NC(=O)NC3CCCCC3)cc2C1=O	11%	-6%	-3%
Cc1cccc(NC(=O)COC(=O)c2cc3ccccc3oc2=O)c1	-22%	-18%	1%
Cc1cccc(CCN2CCN=C2Nc2ccccc2)c1	-20%	-10%	-5%

Source: PubChem BioAssay (National Center for Advancing Translational Sciences (NCATS))

This is a subset (hit frequency here may not be typical).
